Vaccinia inh: Vaccinia orthopox stage-specific inhibition; Vaccinia-infected cells, mCherry/Venus stage reporter fluorescence; active compounds read low; some inactives read as strong as hits; activity change (mCherry), % (test concentration not listed); actives 0.01% (n = 89,000);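 active = mCherry past -33% and 40 or more points under the early reporter, replicates agreeing; inconclusive = past -33% without that gap or agreement; tested in A549 cells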;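 also: scaled between vehicle wells and reference inhibitor wells; 23 nL library stock went into each well; one replicate is shown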
Vaccinia inh Venus: recorded beside Vaccinia inh, whose call it bears; activity change (Venus), %; measured here: Venus reporter, other viral stage;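 negative = less Venus signal; first of two replicates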
The depositor's hits bear a star; u = inconclusive; x = not tested or not shown. This is a subset; count on the stated rates, not on these rows.

Under each structure – Vaccinia inh Venus	Vaccinia inh
- O=S(=O)(Cc1ccccc1)N1CCCCN2[C@@H](CO)[C@@H](c3ccc(-c4cccnc4)cc3)[C@@H]2C1
 : -22	-21
- CCS(=O)(=O)N(C)C[C@@H]1OCc2ccccc2-c2c(n(C)c3ccccc23)C(=O)N([C@H](C)CO)C[C@@H]1C
 : -7	-10
- CN1c2ccc(C3=CCCCC3)cc2[C@H]2[C@H](CCN2C(=O)C2CCC2)[C@@H]1CO
 : x	u
- O=C(c1ccccn1)N1C[C@@H]2[C@H](c3ccccc31)[C@@H](CO)N2C(=O)Nc1ccccc1Cl
 : 4	4
- O=C(c1cccc(F)c1)N1C[C@H]2[C@@H](c3ccccc31)[C@H](CO)N2C(=O)c1cccc(F)c1
 : 11	2
- Cc1ccccc1S(=O)(=O)NCC[C@@H]1CC[C@@H](NC(=O)C2CC2)[C@@H](CO)O1
 : 12	10
- CC(C)NC(=O)Nc1cccc2c1O[C@H](CN(C)Cc1ccc(Oc3ccccc3)cc1)[C@H](C)CN([C@H](C)CO)C2=O
 : -4	3
- CO[C@@H]1CN(C)C(=O)c2cc(NS(C)(=O)=O)ccc2OC[C@@H](C)N(S(C)(=O)=O)C[C@@H]1C
 : 3	6
- C[C@@H]1CN([C@@H](C)CO)C(=O)c2cc(NC(=O)C3CCCCC3)ccc2O[C@H]1CN(C)C
 : x	u
- COC(=O)[C@@H]1[C@@H](CO)[C@@H]2Cn3c(ccc(/C=C/c4ccccc4)c3=O)[C@H]1N2C(=O)C1CCC1
 : 0	8
- C[C@@H]1CN([C@@H](C)CO)C(=O)c2cccc(NC(=O)c3cnccn3)c2O[C@H]1CN(C)C(=O)Nc1ccc2c(c1)OCO2
 : -4	5
- CO[C@H]1CN(C)C(=O)c2cc(NS(=O)(=O)c3cn(C)cn3)ccc2OC[C@@H](C)NC[C@H]1C
 : 2	18
- CO[C@H]1CN(C)C(=O)c2ccc(NC(=O)Cc3ccccc3)cc2OC[C@H](C)N(C(C)=O)C[C@H]1C
 : 11	10
- O=C(C[C@H]1C[C@@H]2c3cc(NC(=O)NC4CCCC4)ccc3O[C@@H]2[C@@H](CO)O1)NCc1ccc(Oc2ccccc2)cc1
 : 5	8
- Cc1cccc(S(=O)(=O)N(C)C[C@@H]2OCc3ccccc3-c3c(n(C)c4ccccc34)C(=O)N([C@H](C)CO)C[C@@H]2C)c1
 : x	u
- Cc1noc(C)c1NC(=O)N(C)C[C@@H]1OCCCC[C@H](C)Oc2ccc(NS(=O)(=O)c3ccccc3)cc2C(=O)N([C@H](C)CO)C[C@@H]1C
 : 14	19
- C[C@@H]1CCCCO[C@H](CN(C)Cc2ccccc2)[C@@H](C)CN([C@H](C)CO)C(=O)c2cc(NC(=O)Nc3ccccc3)ccc2O1
 : x	u
- O=C(CC1CC1)N1CC(=O)N2[C@H](CO)[C@@H](c3ccc(C#Cc4ccc(F)cc4)cc3)[C@H]2C1
 : x	u
- Cc1ccc(S(=O)(=O)N(C)C[C@@H]2OCCCC[C@@H](C)Oc3ccc(NS(=O)(=O)c4ccccc4)cc3C(=O)N([C@H](C)CO)C[C@H]2C)cc1
 : x	u
- CC(=O)N(C)C[C@@H]1Oc2cc(C#Cc3cccnc3)ccc2S(=O)(=O)N([C@@H](C)CO)C[C@H]1C
 : 2	13
- O=C(C[C@@H]1CC[C@@H]2[C@H](COC[C@@H](O)CN2Cc2cccc(-c3ccncc3)c2)O1)N1CCN(c2ccccc2)CC1
 : x	u
- C[C@H]1CN([C@@H](C)CO)C(=O)c2cc(-c3cccc(C(=O)N(C)C)c3)cnc2O[C@@H]1CN(C)C
 : 10	18
- C[C@@H]1CN([C@H](C)CO)C(=O)c2c(c3ccccc3n2C)-c2ccccc2CO[C@@H]1CN(C)Cc1cccc(C(=O)O)c1
 : 6	11
- COCC(=O)N1C[C@@H](C)[C@H](OC)CN(C)C(=O)c2ccc(NC(=O)C3CCC3)cc2OC[C@H]1C
 : 4	5
- C[C@@H]1CCCCO[C@@H](CN(C)S(=O)(=O)c2ccccc2)[C@@H](C)CN([C@H](C)CO)C(=O)c2cc(NS(=O)(=O)c3ccccc3)ccc2O1
 : 2	5
- CO[C@@H]1CC[C@@H]2CCOc3ccc(C#N)cc3C(=O)N(C)C[C@H](C)C(=O)N(C)C[C@@H]1O2
 : 0	7
- CC(C)NC(=O)N(C)C[C@H]1Oc2ccc(NC(=O)NC3CCCCC3)cc2CC(=O)N([C@@H](C)CO)C[C@@H]1C
 : -1	2
- CCS(=O)(=O)N1CCCCN2[C@H](CO)[C@@H](c3ccc(C#Cc4ccccn4)cc3)[C@@H]2C1
 : 12	18
- O=C(C[C@@H]1CC[C@H]2[C@@H](COC[C@@H](O)CN2C(=O)c2cnccn2)O1)NCc1ccccc1
 : 7	12
- CN(C)C(=O)C[C@@H]1C[C@H]2c3cc(NC(=O)NC4CCCCC4)ccc3O[C@H]2[C@@H](CO)O1
 : 14	21

Brought forward from above: 2 entries, then new ones.
Under each structure – Vaccinia inh Venus	Vaccinia inh
- O=C(C[C@@H]1CC[C@H]2[C@@H](COC[C@@H](O)CN2C(=O)c2cnccn2)O1)NCc1ccccc1
 : 7	12
- CN(C)C(=O)C[C@@H]1C[C@H]2c3cc(NC(=O)NC4CCCCC4)ccc3O[C@H]2[C@@H](CO)O1
 : 14	21
- O=C(O)C[C@H]1C[C@H]2c3cc(NC(=O)Nc4ccccc4)ccc3O[C@H]2[C@H](CO)O1
 : 8	5
- O=C(NCC[C@H]1CC[C@H](NC(=O)c2cccnc2)[C@H](CO)O1)Nc1ccc(F)cc1
 : -7	-1
- C[C@@H](NC(=O)C[C@H]1CC[C@H]2[C@@H](COc3ccc(NS(=O)(=O)c4ccc(Cl)cc4)cc3C(=O)N2C)O1)c1ccccc1
 : -4	-2
- C[C@H]1CN([C@@H](C)CO)C(=O)c2cc(NC(=O)CCC(F)(F)F)ccc2O[C@H]1CN(C)Cc1ccc(C(F)(F)F)cc1
 : -9	-13
- C[C@H](C(=O)N(C)C[C@H]1OCc2ccccc2-c2ccccc2C(=O)N([C@@H](C)CO)C[C@@H]1C)c1ccccc1
 : 4	21
- CN(C)CC(=O)N[C@H]1C[C@@H]2O[C@H](CO)CC[C@@H]2O[C@@H]1CCc1ccc(-c2ccc(F)cc2)cc1
 : x	u
- CO[C@@H]1CN(C)C(=O)c2cc(NS(=O)(=O)c3ccc(F)cc3)ccc2OC[C@@H](C)N(C)C[C@H]1C
 : 1	3
- C[C@@H]1CN([C@@H](C)CO)C(=O)c2cc(NS(C)(=O)=O)ccc2O[C@@H]1CN(C)CC1CCCCC1
 : 5	3
- COCC(=O)N(C)C[C@H]1Oc2cc(-c3ccc(OC)cc3)ccc2S(=O)(=O)N([C@@H](C)CO)C[C@@H]1C
 : -13	-11
- CC(=O)Nc1ccc2c(c1)C(=O)N(C)[C@@H]1CC[C@H](CC(=O)NCc3ccc(F)cc3)O[C@@H]1CO2
 : 5	3
- COc1ccc(CN(C)C[C@H]2Oc3c(NC(=O)Nc4ccc(OC)cc4)cccc3C(=O)N([C@@H](C)CO)C[C@@H]2C)cc1
 : 6	10
- CC(C)C#Cc1ccc2c(c1)O[C@@H](CN(C)Cc1cccnc1)[C@@H](C)CN([C@@H](C)CO)S2(=O)=O
 : -27	-26
- COC(=O)C[C@H]1CC[C@@H](NS(=O)(=O)c2ccc(OC)cc2)[C@@H](CO)O1
 : -4	-11
- O=C(Nc1ccccc1Cl)N1[C@@H](CO)[C@@H]2c3ccccc3NC[C@@H]21
 : 4	-2
- Cc1noc(C)c1S(=O)(=O)Nc1ccc2c(c1)C(=O)N([C@H](C)CO)C[C@@H](C)[C@H](CN(C)C(=O)Nc1ccccc1)OCCCC[C@@H](C)O2
 : -32	-34
- CCC(=O)Nc1ccc2c(c1)C(=O)N(C)C[C@@H](OC)[C@@H](C)CN(Cc1cccnc1)[C@H](C)CO2
 : 0	-7
- O=C(c1ccc(F)cc1)N1CC(=O)N2[C@@H](CO)[C@@H](c3ccc(-c4cccnc4)cc3)[C@@H]2C1
 : -1	27
- C/C=C/c1ccc([C@@H]2[C@H](CO)N(CC3CCOCC3)C23CN(C(=O)COC)C3)cc1
 : -4	-3
- Cc1noc(C)c1NC(=O)N[C@H]1CC[C@@H](CCNC(=O)C2CC2)O[C@H]1CO
 : 4	12
- CO[C@@H]1CN(C)C(=O)c2cc(NC(=O)NC(C)C)ccc2OC[C@H](C)N(S(C)(=O)=O)C[C@H]1C
 : 12	32
- CC(C)NC(=O)Nc1cccc2c1O[C@@H](CN(C)S(=O)(=O)c1cn(C)cn1)[C@H](C)CN([C@H](C)CO)C2=O
 : 1	3
- C[C@H](CO)N1C[C@H](C)[C@@H](CN(C)CC2CCCCC2)Oc2c(NC(=O)C3CC3)cccc2C1=O
 : 4	1
- CN(C)CCCNC(=O)C[C@@H]1CC[C@H](NS(=O)(=O)c2ccc(F)cc2)[C@@H](CO)O1
 : 0	2
- CCCC#Cc1ccc([C@@H]2[C@@H](CO)N3CCCCN(C(=O)NC4CCCC4)C[C@H]23)cc1
 : x	u
- O=C(C[C@@H]1C[C@@H]2c3cc(NC(=O)NC4CCCCC4)ccc3O[C@@H]2[C@H](CO)O1)NCc1ccncc1
 : 6	0
- C[C@H](CO)N1C[C@H](C)[C@@H](CN(C)S(=O)(=O)c2ccc(F)cc2)Oc2ccc(NC(=O)Nc3ccc(F)cc3)cc2CC1=O
 : -5	-2
- CC(=O)N(C)C[C@@H]1Oc2ncc(-c3ccc(F)cc3)cc2C(=O)N([C@@H](C)CO)C[C@@H]1C
 : 15	10
- COc1ccc(NC(=O)Nc2cccc3c2O[C@@H](CN(C)Cc2ccc4c(c2)OCO4)[C@H](C)CN([C@H](C)CO)C3=O)cc1
 : -4	-8
- O=C(CN1CCOCC1)N1CCCCN2[C@H](CO)[C@@H](c3ccc(-c4ccccc4)cc3)[C@H]2C1
 : 5	10
- COc1cccc(S(=O)(=O)N[C@H]2C=C[C@@H](CC(=O)NC3CCC3)O[C@@H]2CO)c1
 : 7	6
- C[C@@H]1CN([C@@H](C)CO)C(=O)c2cc(-c3ccncc3)cnc2O[C@H]1CN(C)C(=O)c1ccccc1F
 : 12	9
- Cc1ccc(S(=O)(=O)N[C@@H]2CC[C@H](CCn3cc(C4(O)CCCC4)nn3)O[C@@H]2CO)cc1
 : -7	-3
- CCCNC(=O)N(C)C[C@@H]1Oc2cc(-c3ccccc3F)ccc2S(=O)(=O)N([C@@H](C)CO)C[C@@H]1C
 : -19	-26
- Cc1noc(C)c1NC(=O)Nc1ccc2c(c1)CC(=O)N([C@H](C)CO)C[C@@H](C)[C@H](CN(C)C(=O)Nc1c(C)noc1C)O2
 : 17	21
- C[C@@H]1CCCCO[C@@H](CN(C)C(=O)NC2CCCCC2)[C@@H](C)CN([C@H](C)CO)C(=O)c2cc(NC(=O)c3ccncc3)ccc2O1
 : 17	18
- CC(C)CC#Cc1ccc([C@@H]2[C@H](CO)N3CCCCN(S(=O)(=O)c4ccc(F)cc4)C[C@@H]23)cc1
 : -32	-19
- C[C@H]1CN([C@@H](C)CO)C(=O)c2cc(-c3cccc(C(=O)N(C)C)c3)cnc2O[C@@H]1CN(C)S(=O)(=O)c1cccc(F)c1
 : -4	3
- COc1ccc(S(=O)(=O)N(C)C[C@@H]2OCCCC[C@H](C)Oc3ccc(NS(C)(=O)=O)cc3C(=O)N([C@H](C)CO)C[C@H]2C)cc1
 : 7	19
- C[C@H](CO)N1C[C@H](C)[C@@H](CN(C)Cc2ccccc2)Oc2ccc(NC(=O)Nc3ccccc3)cc2CC1=O
 : x	u
- Cc1ccc(S(=O)(=O)Nc2ccc3c(c2)C(=O)N([C@H](C)CO)C[C@H](C)[C@H](CN(C)Cc2ccncc2)O3)cc1
 : 13	17
- C[C@@H]1CN([C@@H](C)CO)C(=O)c2cc(NC(=O)Nc3cccc4ccccc34)ccc2O[C@H]1CN(C)S(=O)(=O)c1ccc(Cl)cc1
 : 6	4
- C[C@@H]1CN([C@H](C)CO)C(=O)Cc2cc(NC(=O)Nc3ccccc3)ccc2O[C@H]1CN(C)C
 : 3	11
- CCCNC(=O)N[C@@H]1CC[C@H](CCn2cc(C3CCCCC3)nn2)O[C@H]1CO
 : 6	-2
- O=C(NC1CCC1)[C@@H]1[C@@H](CO)[C@@H]2Cn3c(ccc(-c4ccccc4F)c3=O)[C@@H]2N1Cc1cocn1
 : 10	19
- COc1ccc2c3c(n(C)c2c1)[C@@H](CO)N(C(C)=O)CC31CCN(C(=O)C2CC2)CC1
 : 10	21
- O=C(N[C@@H]1CC[C@@H](CCNS(=O)(=O)c2ccc(Cl)cc2)O[C@H]1CO)c1ccccn1
 : -1	3
- N#C[C@H]1[C@H](c2ccccc2)[C@H](CO)N1S(=O)(=O)c1cccc(F)c1
 : -4	0
- O=C(C[C@H]1CC[C@@H]2[C@H](COC[C@@H](O)CN2CC2CC2)O1)NCc1ccc(Cl)cc1
 : 18	5
- C[C@@H]1CN([C@@H](C)CO)C(=O)Cc2cc(NS(=O)(=O)c3cccs3)ccc2O[C@H]1CN(C)C(=O)NC1CCCCC1
 : 9	15
- O=C(C[C@@H]1CC[C@H]2[C@@H](COC[C@@H](O)CN2C(=O)c2ccc(F)cc2)O1)NCc1cccc(F)c1
 : 12	9
- COc1cccc(-c2ccc([C@H]3[C@@H](C#N)N(C(=O)c4ccccn4)[C@@H]3CO)cc2)c1
 : -11	-18

A few values from the entries so far:
In Vaccinia inh Venus, Cc1noc(C)c1NC(=O)Nc1ccc2c(c1)CC(=O)N([C@H](C)CO)C[C@@H](C)[C@H](CN(C)C(=O)Nc1c(C)noc1C)O2 reads 17
In Vaccinia inh Venus, C[C@@H]1CN([C@H](C)CO)C(=O)Cc2cc(NC(=O)Nc3ccccc3)ccc2O[C@H]1CN(C)C reads 3
In Vaccinia inh Venus, O=C(C[C@H]1CC[C@@H]2[C@H](COC[C@@H](O)CN2CC2CC2)O1)NCc1ccc(Cl)cc1 reads 18
In Vaccinia inh, C[C@@H]1CCCCO[C@@H](CN(C)C(=O)NC2CCCCC2)[C@@H](C)CN([C@H](C)CO)C(=O)c2cc(NC(=O)c3ccncc3)ccc2O1 reads 18
In Vaccinia inh Venus, Cc1ccc(S(=O)(=O)N[C@@H]2CC[C@H](CCn3cc(C4(O)CCCC4)nn3)O[C@@H]2CO)cc1 reads -7
